GIV Gai3 FP: inhibitors of GIV peptide binding to Galpha-i3, primary screen, biochemical, fluorescence polarization, FITC-GIV GBA peptide, rat Galphai3 | 0.42% of 210,000 active | Guanine nucleotide-binding protein G(i) subunit alpha-3 (Rattus norvegicus), P08753 | 90 min; hits give low values; scaled: aluminum fluoride 0%, vehicle 100% | AID 1224905, 2016 | percent of control (FP), % (test concentration not listed);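 active = replicate mean at 85% of control or lower, very high polarization wells dropped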;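 note: wells of about 15 µL received 100 nL stock; the first replicate is given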
Target sequence (P08753 whole entry, looked up): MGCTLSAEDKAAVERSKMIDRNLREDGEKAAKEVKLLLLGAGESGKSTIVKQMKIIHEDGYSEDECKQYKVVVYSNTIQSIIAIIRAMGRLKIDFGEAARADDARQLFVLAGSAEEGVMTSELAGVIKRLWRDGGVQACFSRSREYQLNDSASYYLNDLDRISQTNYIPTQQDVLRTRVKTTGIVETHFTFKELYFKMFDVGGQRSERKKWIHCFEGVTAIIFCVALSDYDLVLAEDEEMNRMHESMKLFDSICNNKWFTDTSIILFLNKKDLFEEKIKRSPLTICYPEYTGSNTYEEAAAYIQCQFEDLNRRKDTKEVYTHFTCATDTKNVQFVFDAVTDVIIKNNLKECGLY
HCMV NEC inh: inhibitors of HCMV UL50-UL53 interaction, biochemical, HTRF | HCMV UL50-UL53 nuclear egress complex (human cytomegalovirus) | normalized percent inhibition | inhibition, % (test concentration not listed) | 0.15% of 190,000 active;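 active = both replicates at 50% or more, plus weaker picks with an unusually low signal ratio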;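 note: stock transfer was 100 nL into about 20 µL; 0% = negative control wells and 100% = wells with untagged competitor protein; inactives centre near -12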
Sa growth 42C: S. aureus growth inhibition at 42 and 30 °C, primary screen, LtaS inhibitor project, RN4220, two temperatures | OD600, 20 h, 42 °C; hits give low values | relative growth, % (no concentration beside the values) | 0.53% of 170,000 active | AID 720641, 2013;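 active = growth at 42 °C up to 50% and 20 or more points under that at 30 °C, or under 10% at both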;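 note: 300 nL library stock went into each well; scaled to the means of positive and negative controls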
Sa growth 42C second temp: further read-out of Sa growth 42C, marked with its call; relative growth, %; measured here: growth at 30 °C;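 optical density after 20 h as mean of two plates; 100% = untreated growth and lower means inhibition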
Numbers without * were called inactive; · = not tested or not shown.

Sequence of screens: GIV Gai3 FP, HCMV NEC inh, Sa growth 42C, Sa growth 42C second temp
CSC(=NC1CCCCC1)NS(=O)(=O)c1ccccc1
 : ·, -2, 104, 95
Cn1nnnc1SCCCNCc1ccccc1OCc1ccccc1F
 : 103, -34, 111, 81
CCN1C(=O)C2C(c3ccco3)NC(C(=O)OC)(c3ccccc3)C2C1=O (stereo unspecified)
 : 97, 3, 99, 88
CCOC(=O)c1ccc(NC(=O)CCn2cnnn2)cc1
 : 109, -17, 107, 87
COc1cccc(CSc2nc3ccncc3n2CC(=O)Nc2ccc(Br)cc2F)c1
 : 98, 17, ·, ·
c1csc(-c2nc(NC3CC3)c3ccccc3n2)c1
 : ·, -31, 79, 69
CCOc1ccc(-c2nnc(SCC(=O)c3ccc(F)cc3)n2-c2ccccc2)cc1
 : 112, 18, 106, 100
CCN(CC)S(=O)(=O)c1ccc2c(c1)nc(CN1CCN(C(=O)Nc3cccc(C)c3)CC1)n2C
 : 104, -2, ·, ·
CC(=O)N1c2ccccc2C2(O)N=C(C)SC12 (stereo unspecified)
 : 106, ·, 97, 85
COc1ccc(Oc2ncccc2NC(=O)c2ccc(OC(F)(F)F)cc2)cc1
 : 107, 0, 100, 96
CN(C(=O)CSc1nc(C2CCCCC2)c(C#N)c(=O)[nH]1)c1ccccc1
 : 100, -6, 124, 93
O=C(c1ccccc1Br)N(Cc1ccco1)C1CCS(=O)(=O)C1 (stereo unspecified)
 : 104, 0, 112, 92
O=C1N=C(N2CCOCC2)S/C1=C1\C(=O)N(Cc2ccc(Cl)cc2)c2ccccc21
 : 102, -30, 86, 87
CCOC(=O)Nc1ccc2c(Cn3nnc(-c4ccc(Cl)cc4)n3)cc(=O)oc2c1
 : ·, 0, 94, 96
Clc1cccc(CN2CN(Cc3ccccc3)c3nc4ccccc4n3C2)c1
 : ·, -9, 102, 83
CN(C1CCCCC1)S(=O)(=O)c1cccc(C(=O)Nc2ccc3c(c2)OCCO3)c1
 : ·, 7, 95, 93
NC(=O)CN1C(=O)CC(c2ccccc2)=Nc2ccccc21
 : 102, -53, 89, 84
COc1ccc(-c2nc(CSCC(=O)NCCc3ccc(OC)c(OC)c3)c(C)o2)cc1
 : 106, 7, 98, 89
Cc1sc(-n2cccc2)c(C(C)NC(=O)Nc2cccc(C(F)(F)F)c2)c1C (stereo unspecified)
 : 103, -28, 99, 85
CC(C)c1ccccc1Oc1coc2cc(OCC(=O)NC3CCCCC3)ccc2c1=O
 : 96, ·, 77, 86
Cc1csc2nc(COc3ccc(NC(=O)COc4ccccc4)cc3)cc(=O)n12
 : 106, 2, 107, 88
COc1ccc(NC(=O)CCCn2nc(C)c3c(C)n(-c4ccccc4)nc3c2=O)cc1OC
 : 102, 6, ·, ·
CCOc1ccc(OCC)c(N2C(=O)NC(=O)/C(=C\C=C\c3ccco3)C2=O)c1
 : 116, 5, ·, ·
Cc1ccc(C(=O)c2cn(Cc3ccccc3F)c3cc4c(cc3c2=O)OCO4)cc1
 : 95, -7, 90, 85
CCCNS(=O)(=O)c1ccc(N2CCCCS2(=O)=O)cc1
 : 113, 15, 101, 94
CCCCN(C)Cc1c(O)ccc2c(=O)c(-c3ccccc3OC)c(C(F)(F)F)oc12
 : 97, ·, 75, 83
COC(=O)c1ccc(-c2nc(NC(C)=O)c3c(=O)oc4ccccc4c3n2)cc1
 : 105, -24, 95, 91
COc1ccccc1NC(=O)C(=O)c1cc(C)n(-c2ccccc2F)c1C
 : 108, 4, 92, 88
CCN(CC)c1ccc2c(c1)OC(=O)N(c1ccc(Cl)c(Cl)c1)P2(=O)N1CCOCC1 (stereo unspecified)
 : ·, -21, 109, 94
CC(C)C1C(C=C(Cl)Cl)C1C(=O)N1CCN(Cc2ccccc2)CC1 (stereo unspecified)
 : ·, -22, 106, 85
Cc1cc(C)nc(SCCS(=O)(=O)c2ccc(C(C)(C)C)cc2)n1
 : 98, ·, 117, 92
COc1ccc(-c2nc3ccccc3o2)cc1NC(=O)c1cccnc1
 : 102, -23, 100, 85
CC(C)C(=O)Nc1ccc(C2=Nn3cc(-c4ccccc4)nc3SC2C)cc1 (stereo unspecified)
 : ·, -35, 81, 60
CCOC(=O)c1c(C)n(-c2ccccc2)c2ccc(OC(=O)c3ccccc3)cc12
 : 104, -25, 101, 93
COc1ccc(C2(Nc3cccc(C(=O)O)c3C)C(=O)c3ccccc3C2=O)cc1
 : 105, ·, 93, 84
CCCOc1cc(C(N)=O)ccc1OC
 : 99, -14, 106, 87
COc1ccc(N=c2oc3ccc(Cl)cc3cc2C(=O)NCc2ccco2)cc1OC
 : 102, -38, 100, 99
Cc1ccc2[nH]c(=O)c3cc(C(=O)N4CCN(c5ccccn5)CC4)sc3c2c1
 : 100, -29, ·, ·
CCCc1[nH]nc2c1C(c1c(Cl)noc1C)C(C#N)=C(N)N2c1ccccc1 (stereo unspecified)
 : ·, -22, 97, 87
O=c1oc2ccccc2c(O)c1Cc1ccccc1
 : 98, -20, 78, 56
C=CCn1c(/N=C/c2ccc3c(c2)OCO3)nc2ccccc21
 : 99, -24, 92, 99
O=C(CSCc1cnn(-c2ccccc2)c1-n1cccc1)Nc1ccc(F)cc1F
 : 95, -11, 102, 91
CCOC(=O)c1c(C)[nH]c(C(=O)N2CCC(CC(=O)NCc3cccc(Cl)c3)CC2)c1C
 : 115, -16, ·, ·
CCOC(=O)C1=C(C)N=c2s/c(=C\c3ccc([N+](=O)[O-])cc3)c(=O)n2C1c1ccc(OC)c(OC)c1 (stereo unspecified)
 : 108, -28, ·, ·
CCOc1ccc(NC(=O)c2oc3ccccc3c2NC(=O)C(C)(C)C)cc1
 : 100, -32, 107, 83
COc1cc2c(cc1OC)C(c1ccc(Cl)cc1Cl)NC(=O)C2 (stereo unspecified)
 : 107, -6, 106, 82
COc1ccccc1C(O)(CCN1CCCCC1)c1ccccc1 (stereo unspecified)
 : 107, -17, 92, 83
COc1cc(CNC2CCCCC2)ccc1OCc1ccc2c(c1)n(C)c(=O)n2C
 : 107, -13, ·, ·
COc1ccc(CCC(=O)Nc2ccc3nc(N4CCC(C)CC4)cc(C)c3c2)cc1
 : 95, ·, 91, 89
C=CCOc1ccc(/C(CC)=N/O)cc1OC
 : 103, -22, 98, 80

The list continues:
Sequence of screens: GIV Gai3 FP, HCMV NEC inh, Sa growth 42C, Sa growth 42C second temp
COc1ccc(C(=O)Nc2cccc(-n3c(C)nc4ncccc4c3=O)c2)cc1
 : 98, -6, ·, ·
COc1cc(OC)c(NC(=O)c2cn(C)c(=O)c3cc(OC)c(OC)cc23)cc1Cl
 : 106, -12, 93, 95
CN1C(=O)N(c2ccc(Cl)cc2)C(C)(O)CC1(C)C (stereo unspecified)
 : 95, -8, 110, 90
O=C1CN(c2ccccc2)S(=O)(=O)c2ccccc2N1
 : 99, -24, 100, 91
COc1ccccc1/C=C1/SC(=S)NC1=O
 : ·, -5, 99, 77
O=C(O)CNC(=O)c1ccc(-c2ccccc2)cc1
 : ·, -21, 96, 93
CCOc1ccc(NC(=O)CC2C(=O)OCCN2CC)cc1 (stereo unspecified)
 : 104, 2, 76, 61
COc1cc(C(=O)OCC(=O)N2CCCC2=O)cc(OC)c1C
 : ·, 4, 94, 93
Cc1cccc(/C=C2\SC(=O)N(CCC(=O)Nc3ccccc3N3CCOCC3)C2=O)c1
 : ·, -17, 97, 95
Cc1ccc(S(=O)(=O)N2CCSC2C(=O)O)cc1 (stereo unspecified)
 : 107, 4, 95, 96
COCCCNC(=O)c1ccc(Cn2c(=O)c3ccccc3n(CC(=O)Nc3c(C)cccc3C)c2=O)cc1
 : 105, -24, 99, 91
Cc1nnc(NC(=O)c2cc(=O)c3cc(F)ccc3o2)s1
 : 99, -6, ·, ·
CC(C)(C)C(=O)CSC1=NNC(c2ccccn2)S1 (stereo unspecified)
 : 105, -6, 104, 94
Cc1sc2nc3c4ccccc4c(N4CCC(C)CC4)nn3c(=O)c2c1C
 : 100, ·, 94, 73
CN(C)c1ccc(-c2nc3cc(N)ccc3o2)cc1
 : 101, -26, 95, 78
CCOc1ccc(S(=O)(=O)NC2CCCCC2)cc1-c1nc(C)no1
 : 107, 3, ·, ·
CCOCCCNC(=O)c1[nH]c2cc(C)ccc2c1Sc1ccc(Cl)cc1
 : 99, -22, 122, 100
CCn1cc(C(=O)N2CCC(C(=O)OC)CC2)c(=O)c2ccc(C)nc21
 : ·, -11, 99, 94
O=S(=O)(NCc1csc(-c2cccs2)n1)c1ccc2c(c1)CCO2
 : 98, -30, 85, 70
O=c1[nH][nH]c(=O)c2ncccc12
 : 106, -6, 92, 85

Record cards, from the list above:
Results for CCn1cc(C(=O)N2CCC(C(=O)OC)CC2)c(=O)c2ccc(C)nc21 → GIV Gai3 FP = ·; HCMV NEC inh = -11; Sa growth 42C = 99; Sa growth 42C second temp = 94
Results for CCOc1ccc(S(=O)(=O)NC2CCCCC2)cc1-c1nc(C)no1 → GIV Gai3 FP = 107; HCMV NEC inh = 3; Sa growth 42C = ·; Sa growth 42C second temp = ·

Additional results.
Sequence of screens: GIV Gai3 FP, HCMV NEC inh, Sa growth 42C, Sa growth 42C second temp
CCN(CC)C(=O)CSc1nc(-c2ccccc2)nc2c1Cc1cccc(OC)c1O2
 : 104, -33, ·, ·
CC(C)(C)C(=O)NC1(C(F)(F)F)NC(=O)N(c2ccc(F)cc2)C1=O (stereo unspecified)
 : 102, -23, 94, 86
CSc1nnc(-c2ccc(C(F)(F)F)cn2)o1
 : 96, 0, 112, 98
Cc1cc(C)n(-c2cc(-c3ccccc3)nc3ncnn23)n1
 : 104, -6, 90, 88
COc1ccccc1NC(=O)C1=C(C)Nc2nc(SCc3ccccc3F)nn2C1c1ccncc1 (stereo unspecified)
 : 96, -64, 105, 97
CN(C)c1ccc(CNc2nc3ccccc3n2CCN2CCCCC2)cc1
 : ·, 6, 119, 95
COc1ccccc1NC(=O)CCN1CC(C)CC(C)C1 (stereo unspecified)
 : 103, -27, 111, 93
CCS(=O)(=O)c1ccc2oc(Nc3ccc(C(C)C)cc3)nc2c1
 : ·, 7, 98, 85
COc1cccc(/C=N/n2cnnc2)c1OC
 : 115, 26, 103, 96
O=C(NCc1ccc2c(c1)OCO2)c1ccc(CN2CCOCC2)cc1
 : 101, 0, 77, 89
COC(=O)c1c(N)n(C2CCCC2)c2nc3ccccc3nc12
 : 107, -34, 99, 101
CC1CCCCN1C(=O)CCS(=O)(=O)c1cc2c(cc1Cl)NC(=O)CO2 (stereo unspecified)
 : 102, ·, 115, 96
COc1cccc(C(=O)Cn2c(=O)n(CCC(=O)NCC3CCCO3)c(=O)c3cc(OC)c(OC)cc32)c1 (stereo unspecified)
 : 99, -34, 95, 84
CS(=O)(=O)N1CCC(n2cnc3cccnc32)CC1
 : 96, -17, ·, ·
C(=Nc1cccnc1)c1c[nH]c2ccccc12
 : ·, -28, 8.3*, 8.4*
CCOC(=O)c1noc2ncnc(Nc3ccc(F)c(Cl)c3)c12
 : 109, -23, ·, ·
Cc1cccc(NC(=O)c2sc3cccc(Cl)c3c2Cl)c1
 : 106, -8, 102, 91
CC(=O)n1c(O)c(/C=C2\C=c3ccc(C)cc3=NC2=O)sc1=N
 : 111, ·, 110, 92
CCOC(=O)c1c(C)n(-c2ccccc2)c2ccc(OC(=O)c3ccccc3NC(=O)C(C)C)cc12
 : 101, -38, 97, 87
Nn1c(SCCN2C(=O)c3ccccc3C2=O)nnc1-c1ccccc1Br
 : ·, -37, 95, 93
O=C(Sc1ccccc1)c1ccno1
 : 103, 1, 98, 37
COc1cc(-c2nnc(COc3cc(C(F)(F)F)cc(C(F)(F)F)c3)o2)cc(OC)c1OC
 : ·, -15, 84, 94
CCOc1ccc(N(C(C)C(=O)N(C)Cc2ccccc2)S(C)(=O)=O)cc1 (stereo unspecified)
 : 106, ·, 92, 84
CCOC(=O)c1c(S(=O)(=O)N2CCC(C(=O)Nc3ccc(C)c(Cl)c3)CC2)c(C)n(C)c1C
 : 105, ·, 111, 92
Cc1noc(/C=C/N(C)C)c1S(=O)(=O)N1CCC(C(=O)O)CC1
 : 100, 4, 99, 97
COc1ccc(CCNC(=O)Cc2c(C)c3cc4c(C)coc4cc3oc2=O)cc1OC
 : 104, -14, 117, 87
CN(c1nc(N)c(C#N)c(CC#N)c1C#N)C1CCS(=O)(=O)C1 (stereo unspecified)
 : ·, 10, 109, 95
CN(C(=O)CS)c1nc2c3ccccc3ncn2n1
 : ·, -35, 98, 90
COc1cc(Nc2c(C(=O)N3CCCCC3)cnc3ccc(F)cc23)cc(OC)c1
 : 97, -26, ·, ·
CCC(C)NC(=O)Cn1cnc2c1c(=O)n(C)c(=O)n2C (stereo unspecified)
 : 100, ·, 96, 79
CSCCOC(=O)C1=C(C)NC(=O)NC1c1ccccc1OCc1ccccc1 (stereo unspecified)
 : 107, 0, ·, ·
O=C(COC(=O)c1ccc[nH]c1=O)NC(c1ccccc1)c1ccccc1
 : ·, -7, 64, 94
COc1cccc(C(=O)Nc2nc3ccc(S(=O)(=O)N4CCCC4)cc3s2)c1
 : 98, ·, 86, 80
O=C1CS/C(=N\N2CCOCC2)N1Cc1ccccc1
 : 107, -27, 116, 99
CCOc1ccc(NC(=O)CCn2cnc3onc(-c4ccc(F)cc4)c3c2=O)cc1
 : 110, ·, 100, 96
CCOc1ccc(C(=O)c2cn(Cc3ccccc3)c3c(F)cc(F)cc3c2=O)cc1
 : 92, -13, 96, 89
NC(=O)c1c(C(F)(F)F)cc(C(F)(F)F)cc1C(F)(F)F
 : 103, -15, 98, 92
